Source: PubChem BioAssay
NPR1 antag – Natriuretic polypeptide receptor (hNpr1) antagonism - Primary qHTS; HEK293 hNpr1 GloSensor cGMP, ANP-stimulated luminescence; Potency, µM (series often up to 46.3 µM), inactives show at the highest dose activity change, negative = inhibition, usual class: inhibitors; actives 1.6% (n = 76,000); active = well fitted inhibition curve with a large enough effect; inconclusive = small, poorly fitted or top-dose-only effect; inactive = no such curve, though single readings can be large or run the other way;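 further: nearly all actives have a fitted effect of over 60% in size; nearly all hits also lower the signal before the agonist is added; a reference antagonist and vehicle were the controls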
Target sequence (P16066 whole entry, looked up): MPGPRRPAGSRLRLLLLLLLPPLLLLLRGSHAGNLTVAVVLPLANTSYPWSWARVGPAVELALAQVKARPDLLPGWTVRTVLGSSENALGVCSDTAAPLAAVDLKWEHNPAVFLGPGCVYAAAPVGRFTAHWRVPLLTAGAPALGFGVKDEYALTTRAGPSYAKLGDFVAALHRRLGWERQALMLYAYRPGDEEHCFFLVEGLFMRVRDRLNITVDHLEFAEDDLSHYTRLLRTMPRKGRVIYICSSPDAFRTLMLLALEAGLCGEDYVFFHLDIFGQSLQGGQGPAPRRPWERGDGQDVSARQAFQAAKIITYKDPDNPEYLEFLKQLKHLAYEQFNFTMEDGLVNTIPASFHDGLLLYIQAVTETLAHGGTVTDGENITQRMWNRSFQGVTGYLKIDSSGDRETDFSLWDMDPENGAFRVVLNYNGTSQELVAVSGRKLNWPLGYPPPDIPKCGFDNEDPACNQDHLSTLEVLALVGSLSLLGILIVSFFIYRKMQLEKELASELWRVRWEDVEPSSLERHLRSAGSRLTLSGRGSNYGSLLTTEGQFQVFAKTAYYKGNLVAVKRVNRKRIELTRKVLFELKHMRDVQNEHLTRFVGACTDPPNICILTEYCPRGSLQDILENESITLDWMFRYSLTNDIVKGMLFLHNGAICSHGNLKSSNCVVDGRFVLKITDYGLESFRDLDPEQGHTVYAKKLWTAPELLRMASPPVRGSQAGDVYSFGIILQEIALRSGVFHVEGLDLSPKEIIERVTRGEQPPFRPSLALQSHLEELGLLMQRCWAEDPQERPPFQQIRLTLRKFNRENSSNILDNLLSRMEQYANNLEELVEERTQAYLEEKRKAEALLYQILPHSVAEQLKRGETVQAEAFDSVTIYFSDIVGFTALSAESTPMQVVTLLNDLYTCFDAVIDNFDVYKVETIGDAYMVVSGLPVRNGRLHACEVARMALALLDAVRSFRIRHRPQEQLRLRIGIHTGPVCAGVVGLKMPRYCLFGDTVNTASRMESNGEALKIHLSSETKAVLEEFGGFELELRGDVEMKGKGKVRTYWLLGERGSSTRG
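HEK293 cells stably expressing human Npr1 and cGMP GloSensor pGS-40F, loaded 2 h with 2% GloSensor reagent, given compound 30 min at room temperature. Luminescence read before and 20 min after 0.1 nM hNppA.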
The depositor's hits bear a star; ? = inconclusive; [ ] = remark or other dose. On the % scale 0 is the no-effect control and ±100 the full control effect; potency means the concentration at half of the fitted maximal effect. A portion of the library; the hit share may differ from the screen's.

SMILES	NPR1 antag
N#Cc1ccc(CN2CCC3(C2)NC(=O)c2ccccc2CO3)cc1 (configuration not stated)	-9%
Cc1cnc(CC2CCCN(C(=O)Cc3ccccc3)C2)n1C(C)C (configuration not stated)	-7%
CNc1cc(C)nc(N2C[C@H]3CN(C(=O)N(C)C)C[C@@]3(C(=O)O)C2)n1	0%
CCc1noc(-c2cn(C3CCN(C(=O)c4ccc(Cl)s4)CC3)nn2)n1	-13%
CN1CCOc2c(C(=O)NCc3cnn(C)c3)cc(-c3ccc([S+](C)(=O)[O-])cc3)cc21	3%[70.6 µM]
COCc1nc(CCNS(=O)(=O)c2ccc(F)cc2)no1	5%
CCOCC(=O)N[C@@H]1CN(S(C)(=O)=O)C[C@H]1CN(C)C	6%
CCOc1cc(C)c(CN2CCCC(O)(CN(C)C)C2)cc1C(C)C (configuration not stated)	1%
O[C@H]1CC[C@@H](Cc2cc(-c3ccc(F)cc3)on2)O[C@@H]1CNCc1ccccc1Cl	-24%[70.6 µM]
COc1ccc(C(=O)N2C[C@@H](CO)[C@H](c3ccccn3)C2)cn1	6%
Cc1ccc(C2Cn3nnc(C(=O)N4CCN(C(=O)Cc5ccc(Cl)cc5)CC4)c3CO2)cc1 (configuration not stated)	-11%
CC(=O)Nc1ccc(CN2C(=O)OC3(CCN(C(=O)C4CCC4)CC3)C2(C)c2ccccc2)cc1 (configuration not stated)	-3%
CCNc1ncc(C(=O)N2CCC(O)(CN3CCOCC3)C(C)(C)C2)cn1 (configuration not stated)	2%
Cc1ccc(CNC(=O)N2CCCC(CN3CCCC3)CC2)cc1 (configuration not stated)	-8%
COc1ccc(C(=O)Nc2ccc(-c3noc([C@@H]4CCCN4Cc4ccc(S(C)(=O)=O)cc4)n3)cn2)cc1	?
O=C(NC1CCCCC1)N1Cc2[nH]cnc2C[C@H]1c1nc(-c2cccc([N+](=O)[O-])c2)no1	-4%
O=C(NCc1ccncc1)c1nc2c(o1)CCN(Cc1nccs1)CC2	-16%[70.6 µM]
Cc1cc(C)n(CC(=O)N2CCCCCNC(=O)CC2c2ccccc2)n1 (configuration not stated)	8%
COc1ccc(-c2cn(CCn3[nH]c(=O)c4ccccc4c3=O)nn2)cn1	5%
COc1ccc(C2(C(=O)N3CCc4nn(C)c(=O)n4CC3)CC2)cc1	4%
COc1cccc(CN2CCOc3ccc(C(=O)NCc4ccc(C)cc4)cc3C2)c1	-25%
O=C1CC(c2ccccc2)N(C(=O)CNC(=O)c2ccc3ccccc3n2)CCCCCCN1 (configuration not stated)	3%
COc1ccc(CN2CC3(CCN(C(=O)Nc4cccc(Cl)c4)CC3)C2=O)cc1	-3%
CCn1nc(-c2ccc3c(c2)OCCO3)nc1N(C)C	0%
CCOCC(=O)N1CCC2(CC1)CC(c1ccccc1)C(=O)N2C (configuration not stated)	3%
CC1CCC2(CC1)NC(=O)N(CC(=O)Nc1ccc(F)cc1F)C2=O (configuration not stated)	2%
O=C(O)c1cccc(C2CCCN(C(=O)c3ccc4c(c3)ncn4CCO)C2)c1 (configuration not stated)	4%
Cc1nnc2n1C(C)CN(C(=O)CCCn1nnc(-c3ccc(F)cc3)n1)C2 (configuration not stated)	-4%
CNc1nccc(N2CCC(CC(=O)NCc3ccncc3)CC2)n1	-8%
CCN1CCC(O)(c2csc(CN(CC)CC)n2)CC1	7%[70.6 µM]

In another format: 3 of the compounds above.
SMILES | NPR1 antag
COc1ccc(CN2CC3(CCN(C(=O)Nc4cccc(Cl)c4)CC3)C2=O)cc1 | -3%
Cc1ccc(CNC(=O)N2CCCC(CN3CCCC3)CC2)cc1 (configuration not stated) | -8%
Cc1cnc(CC2CCCN(C(=O)Cc3ccccc3)C2)n1C(C)C (configuration not stated) | -7%

Next entries:
SMILES	NPR1 antag
CC(C)(C)c1coc([C@@H]2COCCN2C2CCCCC2)n1	-3%[70.6 µM]
O=C1C(OCC2CC2)C2(CCCCC2)N1C1CCN(Cc2ccncc2F)CC1 (configuration not stated)	-9%
COc1ccc(-c2[nH]nc3ncc(-c4ccccc4F)nc23)c(C)c1	-13%[70.6 µM]
Cc1cn2nc(C(=O)N3CCC(C(=O)NCCc4ccccc4)CC3)cc2c(=O)[nH]1	-11%
O=C(C1CCCCC1)N1CCC(C2CCN(Cc3cccc(F)c3F)CC2)C1 (configuration not stated)	8%
COc1ccccc1CN1CC[C@@H](CO)N(C)c2ncccc2C1	-9%[70.6 µM]
Cc1nc(N2CCN(C(=O)c3ccc(C(C)(C)C)cc3)CC2)cc(C(F)(F)F)n1	?
COC(=O)c1c(S(=O)(=O)N2CCCCCCC2)sc2c1CCN(C(=O)C1CC=CCC1)C2 (configuration not stated)	-12%
c1ccc(CCc2noc(CN3CCCCC3CCn3cccn3)n2)cc1 (configuration not stated)	-2%
CCNC(=O)N1CCC[C@@H](O)[C@H](NC(=O)c2ccc(OCc3c(C)noc3C)cc2)C1	-8%[70.6 µM]
CC(C)c1ccc(N2CC(C(=O)NCc3nc(C(C)C)no3)CC2=O)cc1 (configuration not stated)	7%
COc1ccc(C(C)NC(=O)c2ccc(Cn3ccn4nc5c(c4c3=O)CCCC5)cc2)cc1 (configuration not stated)	-25%
O=C(Nc1cnc(-c2ccccc2)nc1)c1ccccc1	-20%
CN1C(=O)CS(=O)(=O)C12CCN(C(=O)c1ccc(Cl)cc1)CC2	-2%
COc1ccc(CC(=O)N(C)C2CCc3ccccc3C2)cc1 (configuration not stated)	-4%[70.6 µM]
COc1ccc(NC(=O)C(C)(C)Oc2nn(C(C)C)c3ccc(CN4CCOCC4)cc23)cc1	2%
Cn1nc(C(=O)NC2CCN(c3cc(-c4cccs4)[nH]n3)C2)c2ccccc21 (configuration not stated)	0%
N#Cc1ccc(C(=O)N2C[C@@H]3C[C@H](C2)c2c(/C=C/c4ccc(Cl)cc4)ccc(=O)n2C3)cc1	-2%
C[C@]1(CO)[C@H]2Cc3sc(NC(=O)c4ccco4)nc3[C@@H](CC(=O)NC3CCCC3)[C@]2(C)CC[C@H]1O	2%
COCc1ccc2c(c1)c(OC(C)(C)C(=O)Nc1cccnc1)nn2Cc1cccnc1	6%[70.6 µM]
CN1CCC2(C1)CN(CC1CC1)c1ccc(C(=O)NCc3cccs3)cc12 (configuration not stated)	-11%[70.6 µM]
O=C(c1cn[nH]c1-c1ccc(F)cc1)N1CCCC(Cc2noc(-c3ccccc3)n2)C1 (configuration not stated)	-14%
CN1CCN(c2ccc(-c3cc4c(ccn4C)c(C(=O)NCC4CCC(=O)N4)n3)cc2)CC1 (configuration not stated)	1%
COc1cc2c(cc1-c1c(-c3ccccc3)ncn1CCCO)CCC2	-16%
O=C(NC1C[C@H]2CC[C@@H](C1)N2C(=O)c1ccc2c(c1)OCO2)c1ccncc1 (some centres not stated)	9%
COc1ccc(CCC(=O)N2CCCCCNC(=O)[C@@H]3CCC[C@@H]32)cc1	1%
CN1CCN(CCCNC(=O)c2c(OCC3CC3)cc(=O)n3c2CCOCC3)CC1	0%
COc1ccccc1-c1onc(C)c1C(=O)NCc1cccc(C)c1	-5%
O=C(c1ccno1)N1C[C@@H]2OCC(=O)N(Cc3ccccc3)[C@@H]2C1	2%[70.6 µM]
Cc1ccc(C(=O)N2CCCC3(CCNCC3)CC2)cc1Cl	-1%

4 neighbouring entries out of the list so far, quoted:
SMILES	NPR1 antag
COc1ccc(NC(=O)C(C)(C)Oc2nn(C(C)C)c3ccc(CN4CCOCC4)cc23)cc1	2%
Cn1nc(C(=O)NC2CCN(c3cc(-c4cccs4)[nH]n3)C2)c2ccccc21 (configuration not stated)	0%
N#Cc1ccc(C(=O)N2C[C@@H]3C[C@H](C2)c2c(/C=C/c4ccc(Cl)cc4)ccc(=O)n2C3)cc1	-2%
C[C@]1(CO)[C@H]2Cc3sc(NC(=O)c4ccco4)nc3[C@@H](CC(=O)NC3CCCC3)[C@]2(C)CC[C@H]1O	2%

(next part)
SMILES	NPR1 antag
CCOc1ccccc1NC(=O)Cn1ccn2nc(-c3ccc(F)cc3)c(CO)c2c1=O	-1%
CCn1cnc(NC(=O)NC2CCN(Cc3cccnc3)CC2)n1	3%
Cc1cc(Cl)ccc1NC(=O)N1CCCC1c1nncn1-c1ccccc1 (configuration not stated)	1%
CC(C)NC(=O)N(C1CCOCC1)C1CN(S(=O)(=O)Cc2ccccc2F)C1	-3%
O=C(O)[C@]12CCCN[C@@H]1CCN(Cc1ccc(-c3ccccn3)cc1)C2	0%
COCC(=O)N[C@H]1CC[C@]2(C)CC[C@@H]3[C@H](OC(=O)[C@H]3C)[C@H]2[C@@H]1C	-2%[70.6 µM]
Cc1ccc(CN2CCOc3cc([S+](N)(=O)[O-])ccc3C2)c(F)c1	?
Cc1ccccc1-c1cnc2[nH]cc(CC(=O)NC3CCOCC3)c2c1	-17%[70.6 µM]
COc1ccccc1Nc1ncc2c(n1)CN(C(=O)c1cc3ccccc3n1C)CCN2	-17%[70.6 µM]
Cc1cnc(C(=O)NC2C[C@H]3CC[C@@H](C2)N3C(=O)CC2CCCCC2)cn1 (some centres not stated)	0%
CC(=O)N1CCCC(c2nn(-c3ccc(F)cc3)c(=O)[nH]2)C1 (configuration not stated)	14%[70.6 µM]
Cc1ccc(-n2c(C3CCN(C(=O)c4ccc(C)nc4)CC3)n[nH]c2=O)cc1	3%
CC(=O)Nc1ccc(S(=O)(=O)Nc2ccc3n(c2=O)C[C@H]2C[C@@H]3CN(C(=O)NC3CCCCC3)C2)cc1	-1%
CN(CC1CCOC1)C(=O)Nc1cccc(C(F)(F)F)c1 (configuration not stated)	5%
Cc1noc(C)c1S(=O)(=O)N1CCC(Cc2nc(-c3ccncc3)n[nH]2)C1 (configuration not stated)	1%

Copied from the list.
CC(C)NC(=O)N(C1CCOCC1)C1CN(S(=O)(=O)Cc2ccccc2F)C1 in NPR1 antag → -3%
CN(CC1CCOC1)C(=O)Nc1cccc(C(F)(F)F)c1 (configuration not stated) in NPR1 antag → 5%
Cc1cc(Cl)ccc1NC(=O)N1CCCC1c1nncn1-c1ccccc1 (configuration not stated) in NPR1 antag → 1%

The listing continues.
SMILES	NPR1 antag
O=C1Nc2ccccc2C2(CCN(C(=O)c3cccnc3)C2)O1 (configuration not stated)	-12%[70.6 µM]
O=C1CN(C(=O)c2cnc3ccccn3c2=O)CCN1Cc1ccc(F)cc1	-2%
CCc1ccc(CN(C)C(C(=O)O)c2c(OC)cccc2OC)nc1 (configuration not stated)	0%
CN1C[C@H](C(=O)NCc2ccccc2)C[C@H]1c1cccc(C(F)(F)F)c1	5%[70.6 µM]
COc1cccc(CNC(=O)CCC2CCN(C(=O)c3ccccc3F)CC2)c1OC	-6%
Cc1ccc(-n2cccc2CC(=O)N(C)Cc2ccco2)cc1	-17%
O=C(O)CCNc1c(-c2ccc(F)cc2)nc2cnccn12	0%
CN(C)c1ccc(C(=O)NC[C@H]2O[C@@H](CO)[C@@H](O)[C@H]2N(C)Cc2ccccc2)cc1	3%
O=C(Nc1ccc([C@@H](O)[C@H]2COCC(=O)N2CC2CC2)cc1)c1ccc(F)cc1	4%[70.6 µM]
CNC(=O)[C@@H]1C[C@@H](N)CN1S(=O)(=O)c1ccc2c(c1)OCCCO2	2%
CN1CCC(O)(CCn2cnc(-c3ccccc3)c2-c2ccsc2)CC1	-11%
Cc1ccccc1CNC[C@H]1O[C@@H]2C[C@@H](CC(=O)NCc3cnn(C)c3)O[C@@H]2[C@@H]1O	1%[70.6 µM]
O=C(c1cccc(Cl)c1)N1CCC2(CC1)CCN(Cc1cccs1)c1ccccc1O2	-5%
Cc1ccc(-c2noc([C@@H]3C[C@H](NC(=O)COc4ccccc4)CN3C)n2)cc1	-9%[70.6 µM]
COCCNC(=O)[C@H]1C[C@H](Oc2ccccc2)CN1Cc1sccc1C	-4%
O=C(O)c1cccc(C2CCCN(C(=O)CCCn3ccnc3)C2)c1 (configuration not stated)	1%
O=C1Cc2c(-c3cccc4ccccc34)n[nH]c2CN1CCOc1ccccc1	?
CN1CC(=O)N(C2CCC2)Cc2c(NCC(C)(C)C)ncnc21	0%[70.6 µM]
Fc1cccc(-c2cnc(Nc3cnccn3)c3c2CCO3)c1	0%[70.6 µM]
CN(Cc1ccccc1C(F)(F)F)S(=O)(=O)NCc1ccccc1	-1%
Cc1cn2nc(C(=O)Nc3ccc(N(C)C)cc3)cc2c(N2CCCC2)n1	10%
Cc1nnc2n1CCC(N(C)C(=O)NC1CCCC1)CC2 (configuration not stated)	4%
O=C1CCN(C(=O)CC2C(=O)NCCN2Cc2ccccc2F)CCN1 (configuration not stated)	6%
Cc1ccccc1S(=O)(=O)N1CCC(CCC(=O)Nc2cccnc2)CC1	?
c1cc(-c2ccsc2)n2nc(C3CCC3)nc2n1	-7%
Cc1ccc(-n2nc(C)c([C@@H]3C=C[C@@H](NC(=O)NC(C)C)C3)c2C)cc1Cl	16µM*
COc1ccc(CN2CC[C@H]3COC(=O)N3c3ccccc3C2)cc1	-2%[70.6 µM]
O=C(Nc1ccc(F)cc1)c1cc2n(n1)CC(c1ccc(Br)cc1)OC2 (configuration not stated)	11µM*
CC(C)(C)NC(=O)CN1C(=O)NC2(CCC(C(C)(C)C)CC2)C1=O (configuration not stated)	16%
O=C(Nc1cccc(Cl)c1F)N1CCC(Oc2ncccc2C(=O)N2CCOCC2)C1 (configuration not stated)	-3%
COc1cc(=O)n2c(c1C(=O)NCc1ccc(F)cc1)CCCC2	0%
COc1ccc(C(=O)N2CCCC3(C2)NC(=O)N(Cc2ccc(Cl)cc2)C3=O)cc1 (configuration not stated)	-13%
COc1cccc(C2Cn3nnc(-c4nc(-c5ccsc5)no4)c3CO2)c1 (configuration not stated)	?
COc1ccc(C(=O)NC2CCN(c3cc(C(F)(F)F)ncn3)CC2)cc1	-4%
CS(=O)(=O)N1CCC(C2CCN(C(=O)Cc3cccnc3)C2)CC1 (configuration not stated)	4%
CC(=O)N[C@@H]1Cc2ccccc2[C@H]1NC(=O)CN1C(=O)CNC1=O	-2%
CN(C)S(=O)(=O)N1CCC(C(=O)Nc2ccc(Oc3cccnc3)cc2)CC1	?
COCCNC(=O)[C@@H]1C[C@@H](O)CN1C1CCN(C(=O)c2nn(C)c3ccccc23)CC1	2%
